Ecoli rRNA inh – inhibits bacterial ribosomal RNA function over humanized ribosomes; actives 1.6% (n = 350,000); GFP signal change (wild-type ribosome), % (test concentration not listed); E. coli WT GFP vs humanized-ribosome RFP mutants, fluorescence, 24 h; stronger effect = lower value; DMSO median 0, no signal -100;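 active means significant combined selectivity score with lowered wild-type GFP, culture density cut under 30%, mutant RFP and density less affected; inactive means any of these conditions unmet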; further: one replicate is shown; some compounds called inactive have numbers as strong as hits
MLL AF4-AF9 inh – inhibitors of human MLL-AF4/AF9 interaction; P42568; AlphaScreen, biotin-AF4 peptide binding to FLAG-AF9; inhibition, % at 10 µM; actives 0.47% (n = 350,000); AID 651704;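 active means every replicate reaching a set inhibition limit, whatever the replicate mean, cut at about 25% in these data; inconclusive means mean inhibition reaches that limit but some replicates miss it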;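 further: 0% = plate neutral control median and 100% = total signal loss; the record names both 10 and 1 µM as test concentration; the first replicate is given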
Target sequence (P42568 whole entry, looked up): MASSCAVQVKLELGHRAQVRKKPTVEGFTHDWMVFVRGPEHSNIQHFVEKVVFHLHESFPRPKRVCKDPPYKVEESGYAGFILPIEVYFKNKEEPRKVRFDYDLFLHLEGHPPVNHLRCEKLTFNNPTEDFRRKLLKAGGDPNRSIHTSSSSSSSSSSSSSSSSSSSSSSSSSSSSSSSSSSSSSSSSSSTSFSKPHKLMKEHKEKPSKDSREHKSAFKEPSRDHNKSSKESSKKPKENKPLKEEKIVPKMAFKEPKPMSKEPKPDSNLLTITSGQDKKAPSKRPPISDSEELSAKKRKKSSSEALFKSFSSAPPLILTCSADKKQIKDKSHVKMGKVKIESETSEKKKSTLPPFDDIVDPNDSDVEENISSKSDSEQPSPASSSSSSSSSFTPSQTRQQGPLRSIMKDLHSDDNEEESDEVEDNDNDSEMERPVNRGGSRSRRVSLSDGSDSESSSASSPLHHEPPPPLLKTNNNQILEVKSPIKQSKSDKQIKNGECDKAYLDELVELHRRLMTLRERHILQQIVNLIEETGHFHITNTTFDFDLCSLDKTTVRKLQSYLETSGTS
FGF22 binding – binders of recombinant human FGF22 by thermal shift. Q9HCT0. SYPRO orange fluorescence; percent of sucrose octasulfate shift, DMSO zero. calls only at 9.99 µM. actives 1.5% (n = 340,000);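 active means melting point raised past a set limit in the mean and every replicate; inconclusive means no clear call; three in four hits are not shown here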
Target sequence (Q9HCT0 whole entry, looked up): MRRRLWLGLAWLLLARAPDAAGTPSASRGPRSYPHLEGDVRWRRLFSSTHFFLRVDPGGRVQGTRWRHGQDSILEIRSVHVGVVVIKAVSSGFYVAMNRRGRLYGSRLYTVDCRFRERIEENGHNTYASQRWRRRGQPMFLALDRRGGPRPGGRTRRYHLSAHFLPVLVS
Ecoli rRNA inh OD600 – recorded beside Ecoli rRNA inh, whose call it bears; OD600 change, %; measured here: OD600 growth;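 optical density of the mix in the first replicate; 0 = DMSO median and -100 = no signal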
Ecoli rRNA inh RFP – recorded beside Ecoli rRNA inh, whose call it bears; RFP signal change, %; measured here: RFP humanized mutant strains;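 first replicate; 0 = DMSO median and -100 = no signal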
* hit, by the source's call; i = inactive; ? = inconclusive. Not all compounds are listed; the hit share may differ from the screen's.

SMILES	Ecoli rRNA inh	Ecoli rRNA inh OD600	Ecoli rRNA inh RFP	MLL AF4-AF9 inh	FGF22 binding
CC(C)CC#Cc1cnc2c(c1)C(=O)N([C@@H](C)CO)C[C@H](C)[C@@H](CN(C)C(=O)CCN1CCCCC1)O2	0	2	-1.4	0.5	i
Cc1ccccc1S(=O)(=O)NCC[C@@H]1CC[C@@H](NC(=O)C2CC2)[C@H](CO)O1	3	5	-2.4	-2.2	i
C[C@@H]1CN([C@H](C)CO)C(=O)c2cc(NS(=O)(=O)c3ccc(Cl)cc3)ccc2O[C@@H]1CN(C)C(=O)Nc1ccccc1	-2	-4	-1.9	-2.5	i
C[C@@H]1CN([C@@H](C)CO)S(=O)(=O)c2ccc(-c3cncnc3)cc2O[C@@H]1CN(C)C(=O)c1ccc2c(c1)OCO2	1	11	5.3	-1.5	i
C[C@@H]1CCCCO[C@H](CN(C)C(=O)c2ccccc2)[C@@H](C)CN([C@@H](C)CO)C(=O)c2cc(NC(=O)Nc3ccc4c(c3)OCO4)ccc2O1	-40	-59	-8.4	-0.6	i
N#C[C@H]1[C@H](c2ccccc2)[C@@H](CO)N1S(=O)(=O)c1ccc(F)cc1	3	4	-1.7	-2.9	i
C/C=C/c1ccc([C@H]2[C@@H](CO)N(C(=O)CC)[C@@H]2CNC(=O)C2CC2)cc1	0	-1	-1.1	-2.0	i
CC(C)C[C@H]1CN(CCCC[C@H]2CNC(=O)C(=O)N2CC2CCCCC2)C(=O)C(=O)N1CCc1ccc(O)cc1	-16	-10	3.2	4.7	i
Cc1cc(C(=O)Nc2cccc3c2O[C@@H](CN(C)S(C)(=O)=O)[C@@H](C)CN([C@@H](C)CO)C3=O)n(C)n1	6	2	-2.7	-12	i
COCC(=O)Nc1ccc2c(c1)C(=O)N(C)[C@H]1CC[C@@H](CC(=O)NCc3ccccc3)O[C@H]1CO2	0	-10	-4.7	-2.2	i
CCOC1=C2[C@H](c3ccccc3)N(S(=O)(=O)c3ccc(C)cc3)[C@H](C(C)C)[C@H]2n2c(=O)n(-c3ccccc3)c(=O)n2C1	6	6	-1.0	4.6	i
CC(N)c1csc(Nc2ccc(S(C)(=O)=O)cc2)n1 (centres undefined)	5	14	-2.7	-0.4	i

Complete entries, quoted from the list:
CCOC1=C2[C@H](c3ccccc3)N(S(=O)(=O)c3ccc(C)cc3)[C@H](C(C)C)[C@H]2n2c(=O)n(-c3ccccc3)c(=O)n2C1 across the screens: Ecoli rRNA inh = 6; Ecoli rRNA inh OD600 = 6; Ecoli rRNA inh RFP = -1.0; MLL AF4-AF9 inh = 4.6; FGF22 binding = i
C[C@@H]1CCCCO[C@H](CN(C)C(=O)c2ccccc2)[C@@H](C)CN([C@@H](C)CO)C(=O)c2cc(NC(=O)Nc3ccc4c(c3)OCO4)ccc2O1 across the screens: Ecoli rRNA inh = -40; Ecoli rRNA inh OD600 = -59; Ecoli rRNA inh RFP = -8.4; MLL AF4-AF9 inh = -0.6; FGF22 binding = i

Following part.
SMILES	Ecoli rRNA inh	Ecoli rRNA inh OD600	Ecoli rRNA inh RFP	MLL AF4-AF9 inh	FGF22 binding
CN(C)CC(=O)N1[C@H](C#N)[C@@H](c2ccc(C#CC3CCCC3)cc2)[C@@H]1CO	0	-1	-1.7	1.1	i
O=C(C[C@@H]1CC[C@H]2NC[C@@H](O)COC[C@@H]2O1)Nc1ccc(-c2ccccc2)cc1	-1	2	3.2	2.2	i
CC(C)NC(=O)N1[C@H](C#N)[C@H](c2ccccc2-c2ccc(F)cc2)[C@@H]1CO	2	5	-0.9	-9.9	i
O=C1Nc2ccccc2NC(c2ccc3c(c2)OCO3)=C1N(Cc1ccc(F)cc1)C(=O)c1ccco1	-28*	-23*	8.0*	5.3	i
O=C(N[C@@H]1CC[C@H](CCNS(=O)(=O)c2ccc(Cl)cc2)O[C@H]1CO)c1cnccn1	2	7	-0.7	0.9	i
CC(=O)c1ccc(-c2[nH]c3ccccc3c2CCN2C(=O)c3ccccc3C2=O)cc1	-15	-13	-3.1	-0.1	i
CCS(=O)(=O)Nc1ccc2c(c1)C(=O)N(C)C[C@H](OC)[C@H](C)CN(C)[C@@H](C)CO2	1	1	2.2	-1.9	i
COc1ccc(NC(=O)C2(C)CCN2C)cc1OC (centres undefined)	9	12	0.4	0.4	i
Cc1ccc(S(=O)(=O)N2C[C@@H](O)COC[C@@H]3O[C@@H](CC(=O)N[C@@H]4CCN(Cc5ccccc5)C4)CC[C@H]32)cc1	1	12	2.6	0.7	i
CCCC#Cc1cnc2c(c1)C(=O)N([C@H](C)CO)C[C@H](C)[C@@H](CN(C)C(=O)C1CC1)O2	2	-2	-2.6	0.4	i
CCCNC(=O)C1(C)CCN(Cc2ccc3ccccc3c2Br)C1 (centres undefined)	-17	-38	-7.9	-1.5	i
C[C@@H]1CCCCO[C@H](CN(C)C(=O)c2ccncc2)[C@@H](C)CN([C@@H](C)CO)C(=O)c2cc(NC(=O)C3CCCCC3)ccc2O1	2	4	-2.5	-4.0	i
CC(C)N1CCCC(C)(C(=O)Nc2nc3ccccc3n2C)C1 (centres undefined)	6	19	-3.7	-2.2	i
C[C@H]1CN([C@@H](C)CO)C(=O)c2cccc(NS(=O)(=O)c3cccs3)c2O[C@H]1CN(C)CC1CC1	4	6	-3.7	-1.0	i
C[C@@H]1CN([C@@H](C)CO)C(=O)c2cccc(NC(=O)c3nc4ccccc4s3)c2O[C@H]1CN(C)Cc1ccc(C(F)(F)F)cc1	1	2	-1.4	-0.9	i
CCCNC(=O)Nc1ccc2c(c1)OC[C@@H](C)N(C(=O)C1CC1)C[C@@H](C)[C@@H](OC)CN(C)C2=O	1	3	-1.0	-8.9	i
O=C(CN1C(=O)CSc2ccc(S(=O)(=O)N3CCOCC3)cc21)NCCc1ccccc1	3	1	-4.5	-2.0	i
O=C(C[C@H]1CC[C@H]2[C@@H](COC[C@@H](O)CN2S(=O)(=O)c2cccc(Cl)c2)O1)NCc1ccc2c(c1)OCO2	-2	-11	0.0	6.7	i
C[C@@H]1CCCCO[C@H](CN(C)Cc2ccc(C(=O)O)cc2)[C@H](C)CN([C@@H](C)CO)C(=O)c2cc(NC(=O)CCC(F)(F)F)ccc2O1	2	6	-1.8	-3.7	i
COc1ccc(Cl)cc1C1=NOC2(CCC2)C(=O)N1Cc1cccc(C#N)c1	-21	-27	-19	-0.7	i
O=C(c1cnccn1)N1CC(=O)N2[C@H](CO)[C@@H](c3ccc(-c4cccc(F)c4)cc3)[C@@H]2C1	5	3	0.2	1.6	i
CC1(C(=O)NCC2CC2)Cc2c(-c3ccc4c(c3)OCO4)ccnc2O1 (centres undefined)	-7	-18	-9.5	2.1	i
CN1C(=O)c2cc(NS(C)(=O)=O)ccc2OC[C@H]2O[C@@H](CC(=O)O)CC[C@H]21	1	11	-2.1	-0.7	i
CCC(=O)Nc1ccc2c(c1)OC[C@H](C)N(Cc1ccccc1OC)C[C@@H](C)[C@H](OC)CN(C)C2=O	1	2	-0.1	0.5	i
OC(c1cc(F)cc(Cl)c1)c1ncc(-c2ccccc2Cl)[nH]1 (centres undefined)	-58	-75	-20	3.4	i
OC[C@@H]1[C@@H](c2ccccc2)C2(CN(Cc3cccnc3)C2)N1Cc1cccnc1	2	6	0.8	?	i
C[C@H](CO)N1C[C@H](C)[C@@H](CN(C)Cc2ccc(Cl)c(Cl)c2)Oc2ccc(NC(=O)C3CC3)cc2C1=O	0	-17	-2.0	2.0	i
C[C@H](CO)N1C[C@H](C)[C@@H](CN(C)Cc2ccc(C(=O)O)cc2)OCCCC[C@H](C)Oc2ccc(NC(=O)c3ccccc3)cc2C1=O	1	5	-0.6	-2.6	i
COc1cc(/C=C/C(=O)OCC(=O)N2CCCCCC2)cc(OC)c1OC	-23	-12	-11	0.0	i
CO[C@H]1CN(C)C(=O)c2cc(NC(=O)c3ccc(-c4ccccc4)cc3)ccc2OC[C@H](C)NC[C@H]1C	-60	-80	-19	6.0	i
CCCC#Cc1ccc2c(c1)O[C@H](CN(C)C(=O)C1CC1)[C@H](C)CN([C@H](C)CO)S2(=O)=O	-2	-6	1.9	-0.2	i
N#Cc1cccc(-c2ccc3c(c2)[C@H]2[C@H](CCN2S(=O)(=O)c2ccccc2F)[C@H](CO)N3)c1	-27	-26	-0.5	-5.8	i
CN1[C@@H]2c3ccc(-c4ccccc4)c(=O)n3C[C@H]1[C@H](CO)[C@H]2C(=O)NCC1CCCCC1	-3	-7	-1.7	0.9	i
C[C@@H]1CN([C@@H](C)CO)C(=O)c2cccc(NC(=O)NC3CCCCC3)c2O[C@@H]1CN(C)S(C)(=O)=O	-5	-2	-1.5	0.3	i
CCCN(C)C[C@@H]1Oc2ncc(-c3ccccc3F)cc2C(=O)N([C@H](C)CO)C[C@H]1C	3	5	-0.2	4.0	i
CN1c2ccc(C#Cc3ccccc3F)cc2[C@H]2[C@H](CCN2C(=O)c2cnccn2)[C@H]1CO	-5	-1	-0.4	15	i
CO[C@H]1CN(C)C(=O)c2cc(NC(=O)c3ccc(F)cc3)ccc2OC[C@H](C)N(C(=O)c2ccc(F)cc2)C[C@H]1C	-2	1	-0.1	2.3	i
COc1ccc(S(=O)(=O)N(C)C[C@@H]2Oc3ccc(N(C)C)cc3CC(=O)N([C@@H](C)CO)C[C@@H]2C)cc1	-1	2	-1.9	3.2	i
COCCN1Cc2cc(C(=O)OC)c3c(c2C1=O)c1ccccc1n3S(=O)(=O)c1ccc(C)cc1	0	-7	5.4	-0.7	i
C[C@@H]1CN([C@@H](C)CO)C(=O)c2cc(NC(=O)c3ccncc3)ccc2O[C@H]1CN(C)C(=O)Nc1ccc(C(F)(F)F)cc1	-2	-5	-2.0	-0.7	i
CCN1[C@@H]2c3ccc(C4=CCCCC4)c(=O)n3C[C@@H]2[C@@H](CO)[C@@H]1C(=O)NCc1ccccn1	0	13	1.2	5.4	i
Cc1noc(C)c1NC(=O)N[C@@H]1CC[C@@H](CC(=O)N2CCN(C)CC2)O[C@@H]1CO	1	3	-1.2	1.2	i
Cc1ccc(S(=O)(=O)N(C)C[C@H]2OCCCC[C@@H](C)Oc3ccc(NC(=O)Nc4ccc(F)cc4)cc3C(=O)N([C@@H](C)CO)C[C@H]2C)cc1	4	0	-2.8	-0.9	i
O=C(c1ccccn1)N1CC[C@@H]2[C@H](CO)Nc3ccc(Br)cc3[C@@H]21	3	12	2.5	-0.1	i
O=C(C[C@@H]1C[C@@H]2c3cc(NS(=O)(=O)c4ccc(F)cc4)ccc3O[C@@H]2[C@@H](CO)O1)NC1CCCC1	1	-12	-0.4	0.4	i
CC(C)NC(=O)Nc1cccc2c1O[C@H](CN(C)Cc1ccc(C(=O)Nc3ccccc3N)cc1)[C@H](C)CN([C@@H](C)CO)C2=O	1	5	0.4	3.8	i
CC(C)NC(=O)Nc1ccc2c(c1)CC(=O)N([C@H](C)CO)C[C@H](C)[C@H](CN(C)C(=O)Nc1ccc(C(F)(F)F)cc1)O2	2	0	0.0	-1.6	i
C[C@H](CO)N1C[C@H](C)[C@@H](CN(C)S(=O)(=O)c2ccccc2)Oc2cc(Br)ccc2S1(=O)=O	-19	-42	-3.9	3.9	i
O=C1NC(=O)C(c2ccccc2)(c2ccccc2)N1S(=O)(=O)c1ccccc1	-17	-24	-5.0	-2.8	i
CO[C@H]1CN(C)C(=O)c2cc(NC(=O)c3ccccc3)ccc2OC[C@@H](C)N(C(=O)CN(C)C)C[C@H]1C	0	1	0.4	-0.2	i
CCCNC(=O)C[C@H]1C[C@@H]2c3cc(NC(=O)Nc4ccc(OC)cc4)ccc3O[C@@H]2[C@H](CO)O1	1	13	-2.4	0.5	i
CC(=O)N(C)C[C@H]1Oc2cc(C#Cc3cccc(F)c3)ccc2S(=O)(=O)N([C@@H](C)CO)C[C@H]1C	-2	-21	5.7	-1.5	i
C[C@H]1CN([C@@H](C)CO)C(=O)CCCn2cc(nn2)CO[C@@H]1CN(C)CC1CCCCC1	-1	0	-1.7	2.3	i
CC(C)(O)C#Cc1ccc([C@@H]2[C@@H](CO)N3CCCCN(C(=O)c4cccnc4)C[C@H]23)cc1	3	10	-1.6	-5.7	i
CCNC(=O)[C@H]1[C@H](CO)[C@H]2Cn3c(ccc(C4=CCCCC4)c3=O)[C@@H]1N2Cc1ccncc1	5	0	-0.1	-1.2	i
COCC(=O)N(C)C[C@H]1Oc2cc(-c3ccc(C#N)cc3)ccc2S(=O)(=O)N([C@@H](C)CO)C[C@@H]1C	9	6	-1.5	0.9	i
C[C@H](CO)N1C[C@H](C)[C@H](CN(C)Cc2ccc(C(=O)O)cc2)Oc2ccc(NC(=O)C3CC3)cc2CC1=O	2	-3	-1.9	-0.9	i

3 entries already listed, sorted by length of the SMILES, rising.
SMILES	Ecoli rRNA inh	Ecoli rRNA inh OD600	Ecoli rRNA inh RFP	MLL AF4-AF9 inh	FGF22 binding
CO[C@H]1CN(C)C(=O)c2cc(NC(=O)c3ccccc3)ccc2OC[C@@H](C)N(C(=O)CN(C)C)C[C@H]1C	0	1	0.4	-0.2	i
COCC(=O)N(C)C[C@H]1Oc2cc(-c3ccc(C#N)cc3)ccc2S(=O)(=O)N([C@@H](C)CO)C[C@@H]1C	9	6	-1.5	0.9	i
C[C@H](CO)N1C[C@H](C)[C@H](CN(C)Cc2ccc(C(=O)O)cc2)Oc2ccc(NC(=O)C3CC3)cc2CC1=O	2	-3	-1.9	-0.9	i
